Bioassay records from PubChem.
CtBP-E1A inh – blocks the CtBP interaction with E1A | AlphaScreen GST-E1A/His-CtBP binding, 1536-well; hits give low values; control for the full effect not named in the record | activity change, % (concentration not given with the values) | actives 0.49% (n = 340,000); in the data active means activity change below about -65%; inconclusive means about -30% to -65%; inactive means above about -30%; note: % is set by controls: 0 for no effect and ±100 for the full control effect
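AlphaScreen with 125 nM GST-E1A and 125 nM His-CtBP (5X stocks) in Tris pH 8.0, 300 mM NaCl, BSA, Tween 20, TCEP. Compounds preincubated 2 h at 37 deg C, then glutathione donor/nickel acceptor beads added for 1 h at 37 deg C in dark.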
PINK1 modulator – changes PINK1 expression | Potency, µM (highest dose often 76.6 µM), for inactives: at the top dose activation (PINK1 increase), actives largely listed as activators | actives 0.2% (n = 410,000) | PINK1 immunofluorescence, high-content cytometry, 24 h | AID 624263; active = well fitted activation curve with a large enough effect; inconclusive = small, poorly fitted or top-dose-only effect; inactive = flat fitted curve, though single readings scatter; cell line not stated here;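 note: potency is the fitted concentration of half-maximal effect; % of control where 0% means no effect; nearly all actives have a fitted effect of over 65% in size; a mitochondrial uncoupler was the plate control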
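Compound titrations (5 concentrations, 24 h) on a stable cell line; DMSO and CCCP controls. Endpoint: fixed-cell PINK1 immunofluorescence with mitochondrial, cell and nuclear markers, scanned by microplate cytometer.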
Six1-Eya2 inh – inhibitors of human Six1/Eya2 interaction | Q15475+O00167 | AlphaScreen GST-Six1/His-Eya2 binding, biochemical; hits give low values; control for the full effect not named in the record | activity change, % (test concentration not listed) | actives 0.56% (n = 360,000) | AID 651725; in the data active = activity change below about -65%; inconclusive = about -30% to -65%; inactive = above about -30%; note: % is set by controls: 0 for no effect and ±100 for the full control effect; compound concentration not given in the record
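AlphaScreen luminescence read after one hour at 37 °C in darkness. Pin-transferred compounds met GST-Six1 and His-Eya2 protein (5X stock 250 nM/500 nM) plus glutathione donor and Ni-chelate acceptor beads (5X, 50 ug/mL).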
D2 ag – activates the human D2 dopamine receptor; activation, % (concentration not given with the values); DiscoveRx PathHunter D2 beta-arrestin, luminescence, 90 min; 100% = 57 uM dopamine signal; P14416; actives 0.084% (n = 360,000); in the data active = activation above about 40%; inconclusive = about 15% to 40%; inactive = below about 15%; note: compound concentration not given in the record; the text of the record calls up to 30% inactive
Target sequence (P14416 whole entry, looked up): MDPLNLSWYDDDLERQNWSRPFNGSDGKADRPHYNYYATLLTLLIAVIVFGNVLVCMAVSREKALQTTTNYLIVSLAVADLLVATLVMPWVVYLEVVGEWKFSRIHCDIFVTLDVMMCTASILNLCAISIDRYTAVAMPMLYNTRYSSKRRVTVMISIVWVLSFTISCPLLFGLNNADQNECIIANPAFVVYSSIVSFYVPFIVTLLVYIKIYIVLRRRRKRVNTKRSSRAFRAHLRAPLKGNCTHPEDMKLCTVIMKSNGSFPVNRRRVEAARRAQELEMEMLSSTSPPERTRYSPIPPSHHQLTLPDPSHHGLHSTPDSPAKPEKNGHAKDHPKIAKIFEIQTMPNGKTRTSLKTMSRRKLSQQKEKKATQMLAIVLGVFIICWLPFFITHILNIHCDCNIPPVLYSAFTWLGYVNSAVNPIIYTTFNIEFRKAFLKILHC
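DiscoveRx PathHunter D2 beta-arrestin cells (2,100/well) attached overnight, then compound-stimulated 90 min at 37 C in HBSS/10 mM HEPES/0.1% Tween-20 buffer; beta-galactosidase complementation read by luminescence after 1 h at ambient temperature. Dopamine 57 uM final (EC100) as control.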
TRPML1 agonist – human mucolipin-1 channel agonism; activation, % (concentration not given with the values); AID 624414; TRPML1-expressing cells, Ca2+ dye fluorescence, FDSS; host cell line not named in the record; reference of the full effect not given here; Q9GZU1; actives 0.12% (n = 410,000); in the data active = activation above about 50%; inconclusive = about 30% to 50%; inactive = below about 30%; note: 0% is about no effect; the text of the record puts the active cut at 80%
Target sequence (Q9GZU1 whole entry, looked up): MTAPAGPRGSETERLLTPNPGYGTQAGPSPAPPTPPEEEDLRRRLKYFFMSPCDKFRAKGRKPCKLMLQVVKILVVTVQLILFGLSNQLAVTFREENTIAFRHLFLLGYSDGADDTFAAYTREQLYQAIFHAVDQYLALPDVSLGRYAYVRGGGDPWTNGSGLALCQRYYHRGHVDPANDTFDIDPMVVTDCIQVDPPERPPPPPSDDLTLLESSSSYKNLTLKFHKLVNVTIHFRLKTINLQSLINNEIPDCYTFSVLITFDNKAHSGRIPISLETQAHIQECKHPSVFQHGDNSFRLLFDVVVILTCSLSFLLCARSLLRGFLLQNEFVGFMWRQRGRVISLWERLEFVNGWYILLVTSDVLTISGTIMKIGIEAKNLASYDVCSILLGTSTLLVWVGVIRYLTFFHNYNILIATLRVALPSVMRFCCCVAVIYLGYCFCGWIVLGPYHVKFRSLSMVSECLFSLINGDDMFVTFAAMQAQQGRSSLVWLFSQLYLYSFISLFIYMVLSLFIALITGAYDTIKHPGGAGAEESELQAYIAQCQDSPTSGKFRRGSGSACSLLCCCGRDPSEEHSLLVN
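Tet-induced TRPML1-DL cells, 1,500 per well, cultured overnight, were loaded with a no-wash Ca2+ dye for 45–90 min. Calcium fluorescence was recorded on the FDSS for 110 s after compound addition, before the EC80 agonist (4 uM 54-4) was added.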
D2 PAM – positive allosteric modulators of human D2 dopamine receptor; P14416; DiscoveRx D2 beta-arrestin cells, luminescence, 90 min; 100% = 57 uM dopamine signal; potentiation, % (concentration not given with the values); actives 0.23% (n = 360,000); AID 624464; active = potentiation of 50% or more; inconclusive = 30% to 50%; inactive = 30% or less;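 note: compound concentration not given in the record; tested on top of an EC20 dose of dopamine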
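PathHunter D2 cells, attached overnight at 37 deg C, received compound in DMSO plus dopamine at EC20 (50 nM final) for 90 min at 37 deg C. Beta-arrestin recruitment was read as luminescence after 1 h with detection reagent at ambient temperature.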
* marks the source's active call; other numbers are inactive results; ? = inconclusive; . = not tested or not shown; [ ] = remark or other dose.

Each structure is followed by: CtBP-E1A inh | PINK1 modulator | Six1-Eya2 inh | D2 ag | TRPML1 agonist | D2 PAM
CCc1ccc2c(COC(=O)CNS(=O)(=O)c3ccc(NC(C)=O)cc3)cc(=O)oc2c1
    -16 | 0.1% | -11 | -2.4 | 0.5 | -9
COc1ccccc1C(=O)C1CCCN(Cc2ccc(Oc3ncccn3)cc2)C1 (configuration not stated)
    21 | -0.6% | -8 | -6.9 | -0.3 | -13
CN(C)/C=C(\C#N)C(=O)Nc1ccc(O)cc1F
    3 | 4.4% | -1 | -6.7 | 0.3 | -2
NC(Cc1ccccc1)c1csc(Nc2nccc(C(F)(F)F)n2)n1 (configuration not stated)
    ? | -0.3% | -17 | 5.7 | 0.4 | -5
CNC(=O)C1Cc2c(-c3ccc(Cl)cc3)ccnc2O1 (configuration not stated)
    1 | 0.5% | 0 | -3.9 | -0.5 | -6
COc1ccc(CN(C(=O)c2oc3cc(C)ccc3c2C)C2CCS(=O)(=O)C2)cc1OC (configuration not stated)
    -3 | -0.1% | -12 | -1.4 | -0.9 | 4
O=C(Nc1cccnc1Cl)c1cc(-c2ccc(F)cc2)on1
    6 | 9.2% | -1 | -2.2 | -0.2 | -7
O=C(Nc1ccc(NC(=O)c2cccnc2Cl)cc1)c1cccc(Cl)c1
    -10 | 6.3% | -23 | -0.3 | 0.4 | 1
COCCN(C(=O)COC(=O)Cc1coc2cc(C)ccc12)c1c(N)n(Cc2ccccc2)c(=O)[nH]c1=O
    -21 | 1.1% | -9 | 2.5 | -0.1 | 7
Cc1ccc(NC(=S)NNC(=S)Nc2ccc(C)cc2)cc1
    1 | 9.6% | -3 | -2.7 | 1.7 | -5
COc1cc(C(CC(=O)N2CCOCC2)c2c(OC)cc(OC)c3ccc(=O)oc23)cc(OC)c1OC (configuration not stated)
    -1 | 0.1% | -5 | -0.1 | -0.1 | -7
CCN(CC)C(=O)C[n+]1cccc(C(N)=O)c1
    5 | -0.7% | 1 | -2.5 | 0.6 | -10
O=C(NCc1ccc2c(c1)OCO2)c1c(F)c(F)c(F)c(F)c1F
    -2 | 1.2% | 0 | -4.0 | -1.0 | 6
Cc1ccc(SCC(=O)NC2CC2)cc1
    4 | 0.1% | 1 | -3.5 | -0.6 | -7
O=c1cc(CN2CCN(Cc3ccccc3)CC2)c2cc(O)ccc2o1
    . | 0.1% | -1 | 0.2 | 0.8 | -8
CCC(C)NC(=O)C1(C)CCC(=O)N1Cc1ccccc1OC (configuration not stated)
    7 | -0.7%[38.3 µM] | 0 | -3.4 | -0.5 | -19
CC(C)C[C@@H](CN1CCC[C@@H]1CN1C(=O)C(=O)NC[C@@H]1Cc1ccc(O)cc1)N1C[C@H](Cc2ccc(O)cc2)N(CC2CCCCCC2)C(=O)C1=O
    -1 | 3.3% | 1 | . | -0.3 | .
CN(CCO)c1cccc2c1S(=O)(=O)N[C@H](Cc1ccccc1)CO2
    1 | -0.7% | -3 | . | -0.4 | .
CCc1cccc(C)c1NC(=S)N(Cc1cccnc1)Cc1ccco1
    -3 | 0.4% | 2 | -0.2 | 1.3 | -8
O=C(COC(=O)c1n[nH]c2ccccc12)Nc1ccccc1F
    -1 | 3.7% | -16 | -0.1 | -0.4 | 2
CSc1ncnc2c1ncn2CCCNC1CCN(Cc2ccccc2)CC1
    1 | 1.8% | -4 | 1.4 | . | .
O=C(CN1CCCC1)OCCCc1ccccc1
    0 | 8.2% | -2 | -1.2 | -0.4 | -7
CC(=O)c1cc(C(=O)c2ccccc2)sc1Nc1ccccc1
    4 | 3.4% | 36 | -4.8 | 0.2 | -13
COc1cccc(OC(=O)N2CCOCC2)c1
    -3 | 1.1% | 9 | -18 | -0.4 | -10
COc1cccc(OCC(O)CN2C(C)CCCC2C)c1 (configuration not stated)
    6 | -1.4% | 0 | -2.8 | -0.4 | -7
COc1ccc(S(=O)(=O)Nc2cccc(/C=C/C(=O)O)c2)cc1
    3 | 2.3% | 2 | -5.8 | -1.1 | -11
COc1ccccc1C(=O)Nc1ccc(C)cc1C(=O)c1ccccc1
    -19 | 7.4% | -9 | -3.6 | 2.6 | -27
Cc1nn(-c2ccccc2[N+](=O)[O-])c(=O)c2ccccc12
    -5 | 0.8% | -5 | -0.5 | -0.5 | -9
COC(=O)c1ccc(NC(=O)CSc2ccccn2)cc1
    2 | 0.0% | 4 | -1.9 | 27 | -4
C/C(=N\NC(=O)C1CCCC1)c1ccc(C(C)C)cc1
    6 | 5.6% | -2 | 1.7 | 4.0 | -15

Single records, from the list above. Values in the order: CtBP-E1A inh, PINK1 modulator, Six1-Eya2 inh, D2 ag, TRPML1 agonist, D2 PAM
Record of O=C(CN1CCCC1)OCCCc1ccccc1 → 0, 8.2%, -2, -1.2, -0.4, -7
Record of O=C(Nc1cccnc1Cl)c1cc(-c2ccc(F)cc2)on1 → 6, 9.2%, -1, -2.2, -0.2, -7
Record of CSc1ncnc2c1ncn2CCCNC1CCN(Cc2ccccc2)CC1 → 1, 1.8%, -4, 1.4, ., .

Back to the main list, starting 2 compounds before the break.
Each structure is followed by: CtBP-E1A inh | PINK1 modulator | Six1-Eya2 inh | D2 ag | TRPML1 agonist | D2 PAM
COC(=O)c1ccc(NC(=O)CSc2ccccn2)cc1
    2 | 0.0% | 4 | -1.9 | 27 | -4
C/C(=N\NC(=O)C1CCCC1)c1ccc(C(C)C)cc1
    6 | 5.6% | -2 | 1.7 | 4.0 | -15
CCOc1cc(C)c(S(=O)(=O)Nc2ccc3cn[nH]c3c2)cc1C
    7 | . | -1 | 5.0 | -0.4 | -5
CC1CN(C(=O)COC(=O)c2ccc(NC(=O)CC#N)cc2)CC(C)O1 (configuration not stated)
    -13 | 2.1% | 3 | -5.3 | 0.8 | -9
COCCNC(=O)C1(C)CCN(C(=O)c2ccc3ccccc3n2)C1 (configuration not stated)
    -9 | 0.6% | 4 | 1.7 | -0.1 | -4
Cc1c2c(nc3ccccc13)CCC(C(C)(C)C)C2 (configuration not stated)
    7 | 3.8% | 6 | -1.1 | 1.8 | -5
Cc1ccc(C(=O)OCC(=O)NC(=O)c2ccccc2)o1
    -3 | -2.3% | 6 | -0.7 | 1.7 | -8
CCOC(=O)N1CCC(N2CCN(S(=O)(=O)CC)CC2)CC1
    7 | -2.2%[38.3 µM] | 10 | 1.6 | 0.2 | -12
CC(C)Oc1ccccc1C1(c2ccccc2)NC(=O)NC1=O (configuration not stated)
    . | -0.5% | -1 | -1.5 | . | -8
CCN1C(=O)CSC1=Nc1ccc(C(=O)OC)cc1
    -3 | 0.5% | 6 | -2.5 | -0.7 | -16
COc1ccc(CNC(=S)NCc2ccc(F)cc2)cc1OC
    -30 | 0.8% | -6 | -2.0 | 0.0 | 6
Cc1ccc(CNc2cnccn2)cc1
    5 | 17%[38.3 µM] | 0 | -2.7 | 1.2 | 1
CCOC(=O)N1Cc2cc3ccccc3nc2C1
    0 | -0.4% | -2 | 1.1 | -1.1 | -2
Fc1ccc(CNC(=S)Nc2cccc(C(F)(F)F)c2)cc1
    3 | ? | 9 | -0.2 | -0.2 | -27
CC1=C(C(=O)N2CCCCCC2)CC(CC(=O)NCc2cccs2)C(=O)N1Cc1ccccc1 (configuration not stated)
    5 | -0.9% | 6 | -5.1 | 0.0 | -5
C/C(=N\Nc1ccc(C)c(Cl)c1)c1cccnc1
    -1 | -2.4% | -3 | -1.7 | 3.6 | -5
CC(C)[C@@H](N)C(=O)N/N=C/c1ccc2ncccc2c1
    11 | 0.7% | -3 | 13 | 0.3 | 1
COCCn1c(SCC(=O)Nc2cccc(F)c2)nc2c([nH]c3ccccc32)c1=O
    4 | 9.0% | -1 | 1.2 | 0.7 | -3
Cn1c(COc2ccc(C(=O)O)cc2)nc2ccccc21
    . | 0.3% | 2 | 0.5 | 1.0 | -4
CCOc1ccc(/C=C2\SC(=S)N(CCC(=O)N(CCO)c3ccccc3)C2=O)cc1
    -22 | 3.4% | -25 | 4.1 | 0.3 | -4
Cn1cc(CN2CCC(CO)CC2)c(-c2ccc(Oc3ccccc3)cc2)n1
    1 | -1.5% | -3 | -2.0 | -0.3 | -10
CN(C)CC(C)(C)CNC(=S)Nc1ccc(S(=O)(=O)N2CCOCC2)cc1
    -12 | 4.4% | 2 | -13 | 0.5 | -6
CCOc1ccccc1OCC(=O)NN=C1CCCC(=O)C1
    -11 | 1.7% | 4 | -2.9 | 2.2 | -33
COCCNC(=O)c1cc2c(=O)[nH]c3ccccc3c2s1
    -9 | 1.6% | -8 | -1.0 | 1.0 | 3
CCn1ncc(CN2CCC(Oc3cc(C(=O)NC4CC4)ccc3OC)CC2)c1C
    3 | -2.5% | 28 | -5.4 | 0.6 | -19
Cc1cc(C)n(CC(O)CN2C(=O)NC(C)(C)C2=O)n1 (configuration not stated)
    -6 | -0.8% | 5 | -0.8 | 0.8 | -7
O=C(Cc1n[nH]c(=O)c2ccccc12)OCC(=O)c1ccc2c(c1)OCCO2
    -10 | 5.7% | -3 | -3.3 | 1.3 | -8
Cc1ccc(N(C)S(=O)(=O)c2c(C)[nH]c(C)c2C(=O)N2CCCC2)cc1
    5 | -0.8% | 2 | 0.0 | 0.0 | 1
Cc1cc(C)cc(S(=O)(=O)c2cn(C)c3cc(N4CCN(C)CC4)c(F)cc3c2=O)c1
    . | 1.1% | -4 | 9.7 | 1.1 | 8
O=C(Nc1cccc(C2=NCCN2)c1)Nc1cccc(C2=NCCN2)c1
    -4 | 0.6% | 12 | -5.3 | 0.1 | -32
Cc1c(NC(=O)c2ccc3c(c2)OCO3)cccc1-c1nc2ccccc2o1
    2 | -0.6% | 2 | -0.6 | 6.7 | -15
COCCN(C(=O)c1ccccc1OC)c1nnc(C)s1
    0 | 0.5% | -12 | -3.3 | 0.6 | -9

(next part)
SMILES | CtBP-E1A inh | PINK1 modulator | Six1-Eya2 inh | D2 ag | TRPML1 agonist | D2 PAM
Cc1[nH]c2c(C)cccc2c1CCNS(=O)(=O)c1cccc([N+](=O)[O-])c1 | -15 | 0.6% | -10 | -2.4 | -0.1 | 1
Cn1c(C(=O)N2CCc3ccccc3C2)cc2c(=O)n3ccccc3nc21 | 7 | 0.3% | 15 | -2.9 | 2.4 | 4
COCCNc1nnc(SCC(=O)NNC(=O)c2ccccc2)s1 | . | 1.3% | 0 | 5.1 | -0.2 | 1
Cc1ccc(SCC(=O)NNC(=O)c2ccccc2)cc1C | 5 | 0.6% | 2 | -0.6 | -1.5 | -3
CCn1cc(/C=C(\NC(=O)c2ccccc2)C(=O)NCCCn2ccnc2)c2ccccc21 | 3 | -0.5% | -5 | -1.0 | -0.2 | -13
COc1ccc(CCNC(=O)c2cc(-c3cc(Cl)ccc3O)n[nH]2)cc1OC | -15 | 4.2% | -13 | 9.7 | 0.6 | 7
CCN1C(=O)CC(C(=O)Nc2ccc(F)cc2)SC1=Nc1cccc(OC)c1 (configuration not stated) | 6 | 0.5% | 8 | -4.5 | 0.9 | 0
CN1CCOCCOCCN(C)C1=O | -1 | -4.4% | 7 | -4.2 | 1.7 | -17
O=C(NC1CCCCC1)c1cccnc1Sc1ccccc1 | 4 | -1.6% | 5 | 2.1 | -0.4 | -3
Cn1cnc2c(cnn2C)c1=N | 0 | 1.1% | 5 | 0.7 | -0.2 | -5
CC(=O)Nc1cccc2c1Cc1cc([N+](=O)[O-])ccc1-2 | 3 | -5.9% | -4 | -0.2 | 0.2 | -21
